D2 ag – human D2 receptor agonism in beta-arrestin assay. activation, % (no concentration beside the values). hit rate 0.084% among 360,000. AID 624465. P14416. DiscoveRx PathHunter D2 beta-arrestin, luminescence, 90 min; 100% = 57 uM dopamine signal; in the data active = activation above about 40%; inconclusive = about 15% to 40%; inactive = below about 15%; further: compound concentration not given in the record; the text of the record calls up to 30% inactive
Target sequence (P14416 whole entry, looked up): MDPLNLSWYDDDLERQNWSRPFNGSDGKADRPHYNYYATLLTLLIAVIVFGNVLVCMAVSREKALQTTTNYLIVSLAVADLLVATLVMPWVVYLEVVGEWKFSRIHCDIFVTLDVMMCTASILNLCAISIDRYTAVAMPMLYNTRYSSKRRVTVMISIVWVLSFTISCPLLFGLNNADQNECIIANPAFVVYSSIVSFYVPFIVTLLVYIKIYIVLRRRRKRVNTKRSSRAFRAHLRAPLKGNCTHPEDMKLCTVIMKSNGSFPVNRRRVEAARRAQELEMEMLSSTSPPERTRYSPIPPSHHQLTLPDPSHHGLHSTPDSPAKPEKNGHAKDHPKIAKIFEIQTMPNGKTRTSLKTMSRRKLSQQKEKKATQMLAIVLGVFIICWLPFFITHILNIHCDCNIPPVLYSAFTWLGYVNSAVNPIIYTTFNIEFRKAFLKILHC
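DiscoveRx PathHunter D2 beta-arrestin cells (2,100/well) attached overnight, then compound-stimulated 90 min at 37 C in HBSS/10 mM HEPES/0.1% Tween-20 buffer; beta-galactosidase complementation read by luminescence after 1 h at ambient temperature. Dopamine 57 uM final (EC100) as control.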
PINK1 expr mod – changes PINK1 expression | hit rate 0.2% among 410,000 | PINK1 immunofluorescence, high-content cytometry, 24 h | AID 624263 | Potency, µM (highest dose often 76.6 µM), for the others: top-dose activation (PINK1 increase), hits mostly activators; active = well fitted activation curve with a large enough effect; inconclusive = small, poorly fitted or top-dose-only effect; inactive = flat fitted curve, though single readings scatter; cell line not stated here;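 further: potency means the concentration at half of the fitted maximal effect; % of control where 0% means no effect; nearly all actives have a fitted effect of over 65% in size; a mitochondrial uncoupler was the plate control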
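Decision-based qHTS: stable cells, 24 h exposure to five compound concentrations, CCCP as control. Fixed cells stained for PINK1 plus nuclear, mitochondrial and cell markers, cytometer read.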
TRPML1 agonist – agonists of human TRPML1 channel | Q9GZU1 | TRPML1-expressing cells, Ca2+ dye fluorescence, FDSS; host cell line not named in the record; reference of the full effect not given here | activation, % (concentration not given with the values) | hit rate 0.12% among 410,000 | AID 624414; in the data active = activation above about 50%; inconclusive = about 30% to 50%; inactive = below about 30%; further: 0% is about no effect; the text of the record puts the active cut at 80%
Target sequence (Q9GZU1 whole entry, looked up): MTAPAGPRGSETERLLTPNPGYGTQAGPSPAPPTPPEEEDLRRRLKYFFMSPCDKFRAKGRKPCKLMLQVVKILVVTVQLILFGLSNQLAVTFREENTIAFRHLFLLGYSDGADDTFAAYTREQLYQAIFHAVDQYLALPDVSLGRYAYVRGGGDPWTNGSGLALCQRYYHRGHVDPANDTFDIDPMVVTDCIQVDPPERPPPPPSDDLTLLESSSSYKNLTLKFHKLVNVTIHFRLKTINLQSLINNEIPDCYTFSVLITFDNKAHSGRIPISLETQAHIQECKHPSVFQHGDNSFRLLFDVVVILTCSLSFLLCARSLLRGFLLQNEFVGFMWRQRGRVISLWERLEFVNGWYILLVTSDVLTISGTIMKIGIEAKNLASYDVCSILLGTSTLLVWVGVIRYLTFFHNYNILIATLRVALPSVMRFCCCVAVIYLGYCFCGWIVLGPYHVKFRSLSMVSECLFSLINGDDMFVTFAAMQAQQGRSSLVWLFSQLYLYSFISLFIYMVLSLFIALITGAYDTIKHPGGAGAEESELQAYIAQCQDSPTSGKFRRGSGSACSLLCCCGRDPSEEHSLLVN
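Agonist activity was taken from a 110 s kinetic Ca2+ dye read on the FDSS after pinning compounds onto TRPML1-DL cells. The cells were seeded at 1,500/well with Tet inducer, incubated about 16 h, then dye-loaded at room temperature.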
Six1-Eya2 inh – blocks human Six1 binding to Eya2; AlphaScreen GST-Six1/His-Eya2 binding, biochemical; hits give low values; control for the full effect not named in the record; activity change, % (concentration not given with the values); hit rate 0.56% among 360,000; AID 651725; in the data active = activity change below about -65%; inconclusive = about -30% to -65%; inactive = above about -30%; further: on the % scale 0 is the no-effect control and ±100 the full control effect
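Homogeneous AlphaScreen proximity assay pairing GST-Six1 with His-tagged Eya2 (added as 5X mix: 250 nM and 500 nM) in 50 mM Tris pH 8.0, 300 mM NaCl, 1 mM TCEP. Glutathione donor and nickel acceptor beads; 1 h, 37 °C, dark.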
CtBP-E1A blk – CtBP/E1A binding inhibition; AlphaScreen GST-E1A/His-CtBP binding, 1536-well; hits give low values; control for the full effect not named in the record; activity change, % (concentration not given with the values); hit rate 0.49% among 340,000; in the data active means activity change below about -65%; inconclusive means about -30% to -65%; inactive means above about -30%; further: on the % scale 0 is the no-effect control and ±100 the full control effect
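AlphaScreen with 125 nM GST-E1A and 125 nM His-CtBP (5X stocks) in Tris pH 8.0, 300 mM NaCl, BSA, Tween 20, TCEP. Compounds preincubated 2 h at 37 deg C, then glutathione donor/nickel acceptor beads added for 1 h at 37 deg C in dark.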
D2 potentiator – potentiates the human D2 dopamine receptor allosterically. P14416. DiscoveRx D2 beta-arrestin cells, luminescence, 90 min; 100% = 57 uM dopamine signal. potentiation, % (test concentration not listed). hit rate 0.23% among 360,000. AID 624464; active = potentiation of 50% or more; inconclusive = 30% to 50%; inactive = 30% or less;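 further: compound concentration not given in the record; tested on top of an EC20 dose of dopamine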
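PathHunter D2 cells, attached overnight at 37 deg C, received compound in DMSO plus dopamine at EC20 (50 nM final) for 90 min at 37 deg C. Beta-arrestin recruitment was read as luminescence after 1 h with detection reagent at ambient temperature.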
Numbers without * were called inactive; ? = inconclusive; / = no result given; & = joins results of further samples; [ ] = remark or other dose. No enrichment for hits. About 1.3% of those tested had a hit in this group.

1. COc1ccc(S(=O)(=O)Nc2cccc3c2O[C@H](CN(C)Cc2ccc(C(=O)O)cc2)[C@@H](C)CN([C@H](C)CO)C3=O)cc1
2. O=C1OCCC1Sc1nnnn1-c1ccccc1 (configuration not stated)
3. Cc1cccc(OC(C)C(=O)Nc2ccc3c(c2)OCCO3)c1 (configuration not stated)
4. CC(=O)c1c(C)[nH]c(C(=O)NNC(=O)COc2cc(C)cc(C)c2)c1C
5. CCC(C)NC(=O)COC(=O)c1ccccc1OCC(=O)Nc1ccc(Br)cc1 (configuration not stated)
6. O=C(Cn1ncc(Cl)c(Cl)c1=O)N1CCN(S(=O)(=O)c2ccc3ccccc3c2)CC1
7. COc1ccc(OCC(=O)NCCS(=O)(=O)N2CCN(c3ccc(F)cc3)CC2)cc1
8. O=C1CCCc2cc3c(cc21)CC1(C3)Cc2cc3c(cc2C1)C(=O)CCC3

assay / entry | 1 | 2 | 3 | 4 | 5 | 6 | 7 | 8
D2 ag | -2.4 | -1.7 | -1.5 | -4.2 | -2.1 | 1.5 | 6.5 | -2.0
PINK1 expr mod | 0.1% | -1.0% | 0.8% | 0.1% | 7.9%&0.2% | -3.3% | 3.8% | 4.4%
TRPML1 agonist | 0.0 | -0.3 | -0.2 | 1.5 | 0.9&-0.3 | -0.6 | -0.7 | 1.8
Six1-Eya2 inh | 3 | 0 | 8 | 1 | -4 | -22 | 6 | 4
CtBP-E1A blk | 7 | 3 | 30 | 2 | -15 | -1 | -16 | /
D2 potentiator | / | -8 | -9 | -19 | -16 | -8 | -8 | -9

9. CN(CC(=O)Nc1ccc(F)cc1)C(=O)COC(=O)c1cc([N+](=O)[O-])ccc1N1CCOCC1
10. Cc1nc2cc(-c3ccccc3)nn2c(C)c1CCC(=O)NC(C)c1ccc2c(c1)OCCO2 (configuration not stated)
11. CCOC(=O)c1c(C)[nH]c(C(=O)OCC(=O)NC(C)C)c1C
12. CCc1nnc(NC(=O)COC(=O)c2cc(OC)cc(OC)c2)s1
13. COC(=O)C1=C(CSCc2ccco2)NC(=O)NC1c1cc(C)ccc1C (configuration not stated)
14. COc1cc2c(cc1OC)C(c1cccs1)CC(=O)N2 (configuration not stated)
15. CN1CCN(/N=C/c2nc(-c3ccccc3)n3ccccc23)CC1
16. Cc1ccc(-n2cnc3c(sc4nccc(N(C)C)c43)c2=O)cc1

assay / entry | 9 | 10 | 11 | 12 | 13 | 14 | 15 | 16
D2 ag | -3.1 | 8.2 | -1.6 | -2.2 | -3.8 | -1.3 | -0.9 | -1.3
PINK1 expr mod | 4.0% | 2.1% | -3.7%[38.3 µM] | -3.4% | -1.0% | / | 0.1% | -2.3%
TRPML1 agonist | -0.2 | -0.6 | 0.3 | 9.2 | 1.4 | 0.0 | 0.3 | -0.3
Six1-Eya2 inh | 0 | -2 | -1 | 5 | -14 | -4 | -12 | 1
CtBP-E1A blk | 0 | -2 | -1 | 7 | -1 | 1 | 10 | -1
D2 potentiator | -1 | -3 | -6 | 3 | 3 | -9 | -21 | -6

Record cards, from the list above:
Cc1ccc(-n2cnc3c(sc4nccc(N(C)C)c43)c2=O)cc1 is listed with D2 ag: -1.3; PINK1 expr mod: -2.3%; TRPML1 agonist: -0.3; Six1-Eya2 inh: 1; CtBP-E1A blk: -1; D2 potentiator: -6
CN1CCN(/N=C/c2nc(-c3ccccc3)n3ccccc23)CC1 is listed with D2 ag: -0.9; PINK1 expr mod: 0.1%; TRPML1 agonist: 0.3; Six1-Eya2 inh: -12; CtBP-E1A blk: 10; D2 potentiator: -21

(listing goes on)
17. Cc1ccc(NS(=O)(=O)c2cc(C(=O)NCCCN(C)C)ccc2Cl)cc1Cl
18. O=C(Nc1ccc2c(c1)OCO2)Nc1ccc2c(c1)OCO2
19. O=C(OCCN1CCCCC1)c1cccc(Cl)c1
20. O=C(Cc1cccs1)NC1(C(=O)NC2CCCC2)CCCCC1
21. CC1CCN(C(=O)C2CCCN(S(C)(=O)=O)C2)CC1 (configuration not stated)
22. Cc1cc(NC(=O)c2ccccc2Cl)no1
23. Cc1nn(-c2ccc(Cl)cc2)c(=O)c2c(C)noc12
24. NC(=O)CC1(c2ccccc2)CCCCC1

assay / entry | 17 | 18 | 19 | 20 | 21 | 22 | 23 | 24
D2 ag | -2.4 | -2.2 | -3.8 | -2.7 | -4.0 | -3.8 | -2.9 | -3.6
PINK1 expr mod | 5.7% | 1.3% | -1.4% | -0.3% | 3.2%[38.3 µM] | 1.9% | 2.6% | 1.9%
TRPML1 agonist | -0.4 | -0.8 | -0.1 | -0.6 | -0.5 | -0.2 | 0.4 | -0.2
Six1-Eya2 inh | 1 | -3 | 9 | 5 | 5 | 16 | -2 | 5
CtBP-E1A blk | 3 | -12 | / | 3 | 10 | 11 | 7 | 2
D2 potentiator | -21 | -3 | -64 | 0 | -11 | 2 | -20 | -5

25. CCOC(=O)N1CCN(C(=O)c2ccc(Cn3c(=S)[nH]c4ccc(Br)cc4c3=O)cc2)CC1
26. O=C(Cc1sc(-c2ccccc2Cl)nc1-c1ccccc1)Nc1ccc(F)cc1
27. c1ccc(-c2noc(-c3cccc4ccccc34)n2)cc1
28. CCOC(=O)C1CCN(C(=O)CN(Cc2ccc(Cl)cc2)S(C)(=O)=O)CC1
29. COc1ccccc1OCCC(=O)N1CCN(c2ccccc2OC)CC1
30. CC(C)(C)OC(=O)N1CCC(NC(=O)c2[nH]cnc2C(=O)Nc2cccc(Cl)c2)CC1
31. O=C(NCCCn1ccnc1)c1ccccc1NS(=O)(=O)c1ccc(F)c(F)c1
32. Cc1ccc(Nc2c3c(nc4ncnn24)CC(C)CC3)cc1 (configuration not stated)

assay / entry | 25 | 26 | 27 | 28 | 29 | 30 | 31 | 32
D2 ag | 3.0 | -1.2 | -3.6 | -1.7 | -1.2 | -1.8 | -0.7 | -2.0
PINK1 expr mod | 25µM* | 22% | 8.8% | -3.2% | 0.8% | 2.6% | 8.0%[38.3 µM] | -3.6%
TRPML1 agonist | 1.5 | -0.1 | 1.8 | -0.5 | 1.2 | 0.0 | 0.2 | 5.0
Six1-Eya2 inh | 1 | -5 | 83 | 10 | 6 | 9 | 4 | -1
CtBP-E1A blk | -20 | 2 | 61 | -5 | 5 | 7 | 6 | 3
D2 potentiator | -2 | -15 | -14 | -1 | -2 | -5 | -15 | -17

Compounds above that contain bromine:
5. CCC(C)NC(=O)COC(=O)c1ccccc1OCC(=O)Nc1ccc(Br)cc1 (configuration not stated)
25. CCOC(=O)N1CCN(C(=O)c2ccc(Cn3c(=S)[nH]c4ccc(Br)cc4c3=O)cc2)CC1

assay / entry | 5 | 25
D2 ag | -2.1 | 3.0
PINK1 expr mod | 7.9%&0.2% | 25µM*
TRPML1 agonist | 0.9&-0.3 | 1.5
Six1-Eya2 inh | -4 | 1
CtBP-E1A blk | -15 | -20
D2 potentiator | -16 | -2

Carrying on:
33. COc1ccc(NC2CCCN(C(=O)CCC(=O)c3ccc(F)cc3)C2)cc1 (configuration not stated)
34. COc1cccc(/C=N/NC(=O)c2c(-c3ccccc3)noc2C)c1O
35. OCCCNc1c2c(nc3cc(-c4ccc(Cl)cc4)nn13)CCC2
36. COC(=O)c1ccccc1NC(=O)CSc1nnc(-c2cccnc2)o1
37. CN(C)CCC1(C2=CCCC2)CC/C(=C/c2ccc(Cl)cc2)C1=O (configuration not stated)
38. CCOc1ccc(-c2cc(C(=O)NCc3ccc(F)cc3)[nH]n2)c(C)c1
39. O=C(Nc1ccc(F)c(Cl)c1)Nc1nnc([C@H]2C[C@H](O)[C@@H](CO)O2)s1
40. COc1ccccc1/C=C(/C(=O)OCC(=O)Nc1cc(C)ccc1C)c1ccccc1

assay / entry | 33 | 34 | 35 | 36 | 37 | 38 | 39 | 40
D2 ag | -3.6 | 0.0 | 4.3 | -3.3 | -0.7 | -3.0 | 3.7 | 1.6
PINK1 expr mod | 2.1% | -4.3% | 1.3% | 0.1% | -2.0% | 0.2% | 0.1% | 5.6%
TRPML1 agonist | 2.6 | 0.0 | 1.1 | 0.3 | 1.1 | 0.1 | -0.1 | ?
Six1-Eya2 inh | 1 | -90* | -5 | 10 | 6 | 2 | 11 | -1
CtBP-E1A blk | -16 | -91* | -3 | -14 | -1 | -18 | 2 | 0
D2 potentiator | -15 | 3 | -7 | -10 | -27 | -22 | 0 | -3

41. O=C(O)c1cc2c(cc1NC(=O)c1ccccc1C(F)(F)F)OCCCO2
42. CCOC(=O)C(Cc1ccccc1)C(=O)Nc1nccs1 (configuration not stated)
43. COc1cccc(C2=NOC(C(=O)NCCCn3ccnc3)C2)c1 (configuration not stated)
44. O=S1(=O)NC2CCCCCN2c2ccc(F)cc21 (configuration not stated)
45. COc1ccc(CC(=O)OCC(=O)NCc2ccccc2Cl)cc1OC
46. CC1CC(C)CN(S(=O)(=O)c2ccc(NC(=O)[C@@H]3CCCN3C(=O)c3cccs3)cc2)C1 (some centres not stated)
47. COc1ccc(OC)c(-n2cnc3cc(C(=O)O)ccc32)c1
48. COCCCNC(=O)COc1ccc(S(=O)(=O)Nc2ccccc2)cc1

assay / entry | 41 | 42 | 43 | 44 | 45 | 46 | 47 | 48
D2 ag | -5.8 | 1.3 | -2.3 | -0.6 | -6.2 | -1.3 | 3.6 | 8.7
PINK1 expr mod | -0.3% | 0.0% | 1.1% | 0.8% | -0.2% | 1.3% | 0.8% | -0.2%
TRPML1 agonist | -0.6 | -0.4 | -0.6 | 0.3 | 5.4 | 0.8 | 0.8 | -0.5
Six1-Eya2 inh | 4 | 1 | -1 | 4 | 6 | 3 | 7 | 6
CtBP-E1A blk | -4 | 6 | 4 | -1 | 11 | / | 4 | 2
D2 potentiator | -11 | 22 | -11 | -7 | -4 | -2 | -4 | -2

49. CCc1ccc(C(=O)CN2C(=O)NC3(CCCCCC3)C2=O)cc1
50. N#CCC(=O)N/N=C/c1cn(Cc2ccccc2C#N)c2ccccc12
51. O=C(CN1C(=O)COc2ccccc21)N1CCc2ccccc2C1
52. COC(=O)c1ccc(/C=N/OCC(=O)NC2CCCCCCC2)cc1
53. CC(=O)N/C(=C\c1ccccc1)C(=O)OC(C)C(=O)NCc1ccccc1 (configuration not stated)
54. CC12CCC(=O)C=C1CCC1C2CCC2(C)C1CC1C3C(=O)N(Cc4ccccc4)C(=O)C3CC(=O)C12 (configuration not stated)

assay / entry | 49 | 50 | 51 | 52 | 53 | 54
D2 ag | -7.6 | -2.9 | -3.2 | -3.1 | -2.7 | -1.3
PINK1 expr mod | 5.1% | 0.3% | -0.4% | 1.4% | 0.4% | 2.6%
TRPML1 agonist | 0.2 | -0.6 | 0.1 | 0.1 | -0.2 | 0.8
Six1-Eya2 inh | -3 | -8 | 7 | 12 | 5 | -13
CtBP-E1A blk | 10 | 8 | 3 | 7 | 9 | -2
D2 potentiator | -21 | -3 | -4 | -3 | -12 | -1
